# LANA-nucl inh = LANA-nucleosome interaction inhibition | z-score (no concentration beside the values) | FITC-LANA1-23 / chicken nucleosome fluorescence polarization; active compounds read low | 51,000 compounds, 0.3% hits;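 active = both repeat wells score below -2 in polarization z-score versus plate sample wells, excluding overly bright wells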;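 also: 100 nL library stock added to about 30 µL; numbers are from one replicate; some results filed as inactive read as strong as hits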
#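 Assay system: FITC-LANA peptide and chicken nucleosomes; input: 240 nM purified chicken nucleosomes (480 nM peptide binding sites), final; also added: 50 nM FITC-LANA1-23 probe; medium: TEN-BT buffer, pH 7.5; doses: pin-transferred compound, 100 nL; times: 10–45 min, room temperature; technique: fluorescence polarization; replication: duplicates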
# Ab BasE inh = blocks the Acinetobacter baumannii siderophore enzyme BasE. purified BasE, fluorescence polarization binding displacement. inhibition, % (no concentration beside the values). 84,000 compounds, 0.1% hits;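 active = both replicates above 25% with normal brightness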;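 also: 0% = negative plate control signal and 100% = positive plate control signal; stock transfer was 100 nL into about 30 µL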
# The depositor's hits bear a star; · = not tested or not shown; & = joins results of further samples. Not all compounds are listed. The share of hits here may be higher or lower than overall.
# The opening 6 entries, ahead of the listing:
Molecule	LANA-nucl inh	Ab BasE inh
COc1ccc(CC(=O)Nc2ccc(N3CCOCC3)cc2)cc1OC	·	-0.3
CC(C)(C)c1cc(C(C)(C)C)n(-c2ccc(-n3cccc3)cc2)n1	·	1.9
COc1cccc(OCCn2cc(C(=O)c3ccco3)c3ccccc32)c1	-0.739	0.7
O=C(Nc1ccccc1N1CCCCC1)c1cc(Cl)sc1Cl	-0.398	·
COc1cc(CNn2cnnc2)ccc1OCC(=O)NC(C)(C)C	0.332	-1.8
CC(Sc1nnc(Nc2ccc(Oc3ccccc3)cc2)s1)C(=O)NC(C)(C#N)C(C)C (stereo not given)	·	1.2

# The list itself, repeating the preview:
Molecule	LANA-nucl inh	Ab BasE inh
COc1ccc(CC(=O)Nc2ccc(N3CCOCC3)cc2)cc1OC	·	-0.3
CC(C)(C)c1cc(C(C)(C)C)n(-c2ccc(-n3cccc3)cc2)n1	·	1.9
COc1cccc(OCCn2cc(C(=O)c3ccco3)c3ccccc32)c1	-0.739	0.7
O=C(Nc1ccccc1N1CCCCC1)c1cc(Cl)sc1Cl	-0.398	·
COc1cc(CNn2cnnc2)ccc1OCC(=O)NC(C)(C)C	0.332	-1.8
CC(Sc1nnc(Nc2ccc(Oc3ccccc3)cc2)s1)C(=O)NC(C)(C#N)C(C)C (stereo not given)	·	1.2
CN(C)S(=O)(=O)c1cccc(C(=O)Oc2ccccc2C#N)c1	·	0.0
CCS(=O)(=O)c1ccccc1C(=O)Nc1nc2c(s1)CCCC2	0.207	1.3
Cc1c(C(=O)OC(C)C(=O)Nc2ccc(S(N)(=O)=O)cc2)oc2ccc(Br)cc12 (stereo not given)	·	0.2
Cc1c(C)c(C)c(CN2C(=O)c3ccccc3C2=O)c(C)c1C	·	1.9
COc1ccc(C(=O)O)cc1NC(=S)NC(=O)Cc1ccc(Cl)cc1	·	0.3
Cn1c(O)c(C=Nc2ccc(N3CCOCC3)c(Br)c2)c(=O)n(C)c1=S	-0.979	1.4
CC(C)(C)c1cc(N=NC(=O)c2ccco2)cc(C(C)(C)C)c1O	-1.1	0.2
O=C(NCCCn1ccnc1)c1cc(NS(=O)(=O)c2cccs2)cc(NS(=O)(=O)c2cccs2)c1	·	0.4
COc1cc(/C=C/C(=O)OCCOc2ccccc2)ccc1O	·	1.6
O=C(COc1cccc(Cl)c1)NC1CCCCC1	0.699	20.9
O=C(NCC(=O)N1CCCCC1)c1ccccc1	0.317	-0.5
CCC(C)[C@@H](C(=O)Nc1ccc2c(c1)OCO2)N1Cc2ccccc2C1=O (stereo not given in full)	-0.578	1.5
Cc1ccc(S(=O)(=O)Nc2ccccc2Oc2ccccc2)cc1	·	1.1
Cc1oc2ncn(C)c(=O)c2c1C(=O)OCc1c(F)cccc1Cl	·	-2.7

# Sorted by length of the SMILES (lowest first): some entries from above
Molecule	LANA-nucl inh	Ab BasE inh
O=C(NCC(=O)N1CCCCC1)c1ccccc1	0.317	-0.5
Cc1oc2ncn(C)c(=O)c2c1C(=O)OCc1c(F)cccc1Cl	·	-2.7
COc1ccc(C(=O)O)cc1NC(=S)NC(=O)Cc1ccc(Cl)cc1	·	0.3

# (continued)
Molecule	LANA-nucl inh	Ab BasE inh
COc1ccc(C(=O)c2c[nH]cc2-c2ccc(C)cc2)cc1OC	-0.616	·
COc1ccccc1Nc1nc(Nc2cccc(C(F)(F)F)c2)nc(N2CCOCC2)n1	0.034	2.9
CN=c1scc(-c2ccccc2)n1/N=C/c1ccsc1	·	1.5
COc1cccc(CNC(=O)CCCN2C(=O)COc3ccc(C)cc32)c1	0.894	-0.4
COC(=O)CN1C(=S)N(c2ccccc2)C(=O)/C1=C/c1ccc(-c2ccc(Cl)cc2)o1	·	-14.5
N#CC1(C#N)C(c2ccc(Cl)c(Cl)c2)C1(C#N)C#N	0.139	-1.9
Cc1ccc(CN(C)C(=O)c2cc3c(C)nn(-c4ccc(F)cc4)c3s2)o1	·	-1.1
O=C(O)c1cc(NNC(=S)NC2CCCCC2)ccc1Cl	·	-1.9
C=CCN(CC=C)Cc1c(C)[nH]c2ccc(Br)cc2c1=O	0.178	0.8
O=S(=O)(NC1CCN(Cc2ccccc2)CC1)c1cccs1	1.01	·
CS(=O)(=O)N1CCN(S(C)(=O)=O)CC1	0.551	2.0
Oc1ccc2ccccc2c1CN1CCCC(C(F)(F)F)C1 (stereo not given)	·	2.1
COc1cc(C)nc2nc(S(C)(=O)=O)nn12	·	2.8
COC(=O)c1ccccc1NC(=O)C(C)N(c1ccccc1)S(C)(=O)=O (stereo not given)	0.324	2.8
C=CCSc1nc(C)c2cc(C)cc(C)c2n1	·	-1.8
COC(=O)c1ccc(NS(=O)(=O)c2cc(Cl)ccc2OC)cc1	-1.22	0.1
CCOC(=O)CC1COc2ccccc2N1C(=O)c1ccc(F)cc1 (stereo not given)	1.05	·
Cn1c(=O)n(C)c2cc(/C=N/NC(N)=S)ccc21	0.337	2.4
CC(C)NC(=S)N1CCN(S(=O)(=O)c2cccc(C(F)(F)F)c2)CC1	·	3.7
CCNC(=O)/C=C/c1ccc(Cl)c(Cl)c1	·	3.5
Clc1ncnc2[nH]ncc12	0.479	5.0
O=C(Nc1ccc(-c2nc3ccccc3[nH]2)cc1)c1cc(-c2ccco2)nc2ccccc12	·	-1.9
CSC(=S)N(C=O)c1ccc(C)cc1	·	3.0
N#C/C(=C(/O)c1ccc(Br)s1)c1nc2ccccc2[nH]1	0.09	1.0
O=C1C(=O)N(c2cccnc2)C(c2ccc(O)cc2)/C1=C(\O)c1ccc(Br)cc1 (stereo not given)	0.296	-1.5
Nn1c(SCC(=O)Nc2ccc(S(=O)(=O)N3CCCC3)cc2)nnc1-c1ccccc1	·	-1.4
O=C(CCn1c(SCC(=O)c2ccc(F)cc2)nc2cc3c(cc2c1=O)OCO3)NCc1ccc2c(c1)OCO2	0.253	0.0
CC(c1ccco1)N(C(=O)c1ccc(-c2ccccc2)cc1)c1ccccn1 (stereo not given)	·	-0.6
Cc1ccc(-c2csc3nnc(SCC(N)=O)n23)cc1	2.33	-4.5
NNc1ccc2nc3ccccc3c(=O)n2n1	·	1.3
O=C(Cc1c[nH]c2ccccc12)OCC(=O)c1cc2ccccc2o1	·	-1.2
Cc1n[nH]c(C)c1C(C)N (stereo not given)	0.24	0.4
CC(C(=O)O)c1ccc(N2Cc3ccccc3C2=O)cc1 (stereo not given)	-0.136&0.016&0.152	0.8&-0.9
CC1CCCC(C)N1C(=O)Cn1nc(C(=O)O)c2ccccc2c1=O (stereo not given)	·	2.4
CC(Sc1nnc(-c2ccc3c(c2)OCO3)o1)C(=O)N1CCc2ccccc2C1 (stereo not given)	·	1.8
Cc1cc(COC(=O)C23CCC(=O)N2c2ccccc2C(=O)N3C2CC2)no1 (stereo not given)	·	1.3
CCN(c1ccccc1)S(=O)(=O)c1ccc(N2CCN(CC(=O)N3CCCCCC3)CC2)nc1	·	-0.1
CCS(=O)(=O)Nc1ccc(OC)c(Cl)c1	-0.609	-1.3
COc1ccc(CCNc2ncnc3c2cnn3-c2ccc(F)cc2)cc1OC	-0.879	1.9
CC1SC(=NC(=O)c2ccco2)NC1=O (stereo not given)	-0.231	-1.2
CCc1c(N)n[nH]c1C	-0.179	0.0
CCOC(=O)c1cc(-n2cccc2)ccc1N1CCCCC1	-0.601	-0.7
CC(=O)Oc1cc(-c2cccc(C(F)(F)F)c2)c2oc(=O)sc2c1	·	2.4
CSc1nc2c(=S)[nH]c(=S)[nH]c2s1	·	-0.7
CCc1ccc(NC(=O)N2CCCCC2C)cc1 (stereo not given)	0.972	0.6
Cc1ccccc1N1CCN(C(=O)c2c(C)oc3cc4c(C(=O)N5CCN(c6ccccc6C)CC5)c(C)oc4cc23)CC1	-0.299	-1.8
COc1ccc(C(N)=CC(=O)OC(C)(C)C)cc1	-1.11	-0.5
O=C(COc1ccc2oc(-c3ccco3)cc(=O)c2c1)NCc1ccccc1	1.98	-2.7
COc1ccc(NC(=O)N2CCCC(C(N)=O)C2)cc1 (stereo not given)	0.371	1.0
O=C(c1ccccc1)c1ccc(Oc2ncccn2)cc1	·	-2.1

# The list continues.
Molecule	LANA-nucl inh	Ab BasE inh
Cc1cc(C(=O)CSc2ncccn2)c(C)n1Cc1ccccc1	·	0.1
c1c2c(cc3sc(N4CCCC4)nc13)OCO2	-0.746	0.0
CCOC(=O)/C(C#N)=C/Nc1nc2c(OC)cccc2s1	-0.366	7.1
Cc1occc1-c1nnc(SCC(=O)N2CCCC(C)C2)n1CC1CCCO1 (stereo not given)	-0.477	0.0
CC(C)CC(C(=O)Oc1ccc2c3c(c(=O)oc2c1)CCC3)N1C(=O)c2ccccc2C1=O (stereo not given)	·	2.1
CN=C(Nc1ccc(C(=O)OC)cc1)c1ccccc1	·	-0.6
CC(=O)Nc1ccc(-c2nc3ncccc3o2)cc1C	0.333	-0.3
O=C(OCC(=O)c1ccc[nH]1)c1ccc(-n2cnnn2)cc1	·	-1.9
CCCN(CC(=O)c1cc(C)n(C)c1C)S(=O)(=O)c1cccc(C(F)(F)F)c1	·	1.2
O=C(Nc1ccccc1)Nc1ccc(I)cn1	0.286	0.1

# Single records (already shown). Order of screens: LANA-nucl inh	Ab BasE inh
# Record of COc1ccc(C(N)=CC(=O)OC(C)(C)C)cc1 : -1.11	-0.5
# Record of COc1cccc(CNC(=O)CCCN2C(=O)COc3ccc(C)cc32)c1 : 0.894	-0.4

# Following part:
# Values in the order: LANA-nucl inh, Ab BasE inh
CO[C@@H]1[C@H](OC(N)=O)C(O)[C@H](Oc2ccc3c(O)c(NC(=O)c4ccc(O)c(CC=C(C)C)c4)c(=O)oc3c2C)OC1(C)C (stereo not given in full)
→ -0.182, 0.2
CC12C(=O)N(c3ccc(Br)cc3)C(=O)C1ON(c1ccccc1)C2c1ccccc1O (stereo not given)
→ -0.319, -1.4
CCOC(=O)c1c(-c2ccc(OC)cc2)csc1NC(=O)CSc1nnc2ccccn12
→ ·, 1.7
O=C1c2ccccc2C(=O)N1/N=C/c1ccc(OC(F)F)cc1
→ ·, -0.1
N#CCC(=O)N/N=C/c1ccccc1
→ ·, 1.4
Cc1ccc(CSc2nnc(-c3ccc(C)cc3)n2N)cc1
→ ·, 0.5
CCCCC1(Cc2ccccc2)C(=O)Nc2ccccc2C1=O (stereo not given)
→ ·, -3.6
O=C(c1ccccc1)N1CCCCC(Sc2nnnn2-c2ccccc2)C1=O (stereo not given)
→ ·, 0.3
CC(C)C(NS(=O)(=O)c1ccc2c3c(cccc13)C(=O)N2C)C(=O)O (stereo not given)
→ -0.504, 1.5
CCN(Cc1ccccc1)C(=O)CSc1nccc(=O)[nH]1
→ ·, 1.9
Cc1nn2c(c1-c1ccccc1)NC1=C(C(=O)CCC1)C2c1cccnc1 (stereo not given)
→ 0.445, -1.3
CCOC(=O)CSc1cc(C)nc(SCC(=O)OCC)n1
→ ·, -0.1
Cc1cccc(NC(=O)c2ccccc2C(=O)O)c1
→ 0.257, -2.4
CC1CCC2(CC1)NC(=O)N(CN1CCCC1)C2=O (stereo not given)
→ ·, 2.0
Cc1ccc(-c2nnc(OCc3cccnc3)c3ccccc23)cc1
→ ·, 1.0
CN/C(=C/[N+](=O)[O-])NCCSCc1ccc(CN(C)C)o1
→ 0.422, ·
CCn1c(CSC/C=C/c2ccccc2)nc2cc(S(=O)(=O)N3CCOCC3)ccc21
→ ·, 1.0
ONC1=NCCCCC1
→ ·, 0.5
O=S(=O)(NCCc1ccccn1)C1=Cc2ccccc2CC1
→ ·, -0.4
O=C(O)CC(CC(=O)N1CCN(c2ncccn2)CC1)c1ccccc1 (stereo not given)
→ 0.507, 3.8
CC1CCCCC1NC(=O)NC(=O)Cn1cc(Br)ccc1=O (stereo not given)
→ ·, 0.6
C=CCn1c(SCC(=O)NCCc2ccccc2)nc2sc3c(c2c1=O)CCCC3
→ ·, -1.8
O=C(Nc1ccccc1)Nc1ccc2c(c1)OCO2
→ ·, 1.4
CC1=CC(C)=NC2=C(c3ccccc3)SC(=C3C(=O)c4ccccc4C3=O)N12
→ 0.339, 2.0
O=C1/C(=C/c2ccco2)SC(=S)N1CN1CCN(c2ccccc2)CC1
→ -0.198, -2.6
O=C1CC(Sc2ccccc2)C(=O)N1c1ccccc1 (stereo not given)
→ 2.55, -2.0
COC(=O)C1C(=O)NC(SCC(=O)Nc2cccc(OC)c2)=C(C#N)C1c1ccc(OC)cc1 (stereo not given)
→ -0.14, -2.5
O=C(c1ccco1)N(Cc1ccccc1)c1nc2c(F)cc(F)cc2s1
→ 1.02, -0.7
O=C1c2ccccc2C(=O)N1Cc1ccc(C2Nc3ccccc3-c3cccn32)o1 (stereo not given)
→ 0.295, 0.5
Cc1[nH]c(=S)sc1CC(=O)NC1CCCCC1C (stereo not given)
→ ·, 3.1
O=C(CSc1ncccn1)N1CCN(c2ccccc2)CC1
→ 2.72, -2.2
CCc1nnsc1C(=O)Nc1sc2c(c1C(=O)NCC1CCCO1)CCCC2 (stereo not given)
→ -0.457, -0.5
CCOC(=O)c1c(NC(=O)CC2NCCNC2=O)sc2c1CCCC2 (stereo not given)
→ 0.983, -0.8
CCN1C(=O)S/C(=C/c2ccc(N3CCCC3)c(F)c2)C1=O
→ -0.445, 2.2
COc1cc2nc(C3CCC3)n(NC(=O)C(OC(C)=O)c3ccccc3)c(=O)c2cc1OC (stereo not given)
→ 0.0825, 0.1
CC1CCCC(C)N1C(=O)COC(=O)c1cc(C(F)(F)F)cc(C(F)(F)F)c1 (stereo not given)
→ ·, 0.5
CC(C)c1ccc(C#N)cc1
→ ·, 2.1
O=C(NCCc1ccccc1)c1ccc(Cl)cc1
→ ·, -1.9
CCC1(C)Cc2ccccc2/C(=C/C(=O)N2CCCCC2)N1 (stereo not given)
→ -0.801, 1.9
CCn1c(N)c(-c2csc(Nc3ccc(F)c(Cl)c3)n2)c(=O)[nH]c1=O
→ ·, -0.3

# High-throughput results from PubChem BioAssay.
